NS1 function inh – inhibitors of influenza NS1 protein function; S. cerevisiae slowed by influenza A NS1, growth recovery by OD600; Potency, µM (top dose mostly 46.1 µM), for inactives: top-dose activity, positive = more growth; 270,000 tested, 0.4% active; AID 2326; active means well fitted rising curve with a large enough effect; inconclusive means small, poorly fitted or top-dose-only effect; inactive means no such curve, though single readings can be large or run the other way; also: nearly all actives have a fitted effect of over 50% in size
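Read-out: OD600 growth recovery of NS1-expressing budding yeast. Cells grown overnight at 30C in -URA glucose medium, washed, resuspended and diluted 1:100 in 2% galactose assay medium, pH 6.0. Same strain lacking NS1 served as positive control.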
SARS PLpro yeast – SARS-CoV PLP inhibition in yeast | S. cerevisiae expressing SARS-CoV PLpro, growth rescue; control for the full effect not named in the record | Potency, µM (highest dose often 32.9 µM), for inactives: at the top dose activity, positive = growth rescue | 330,000 tested, 0.19% active; active means well fitted rising curve with a large enough effect; inconclusive means small, poorly fitted or top-dose-only effect; inactive means no such curve, though single readings can be large or run the other way; also: 0% is about no effect; nearly all actives have a fitted effect of over 55% in size; growth read by luminescence after 48 h
Lassa entry inh – inhibitors of Lassa virus binding or cell entry; Lassa virus pseudotype entry inhibition, cell reporter; control for the full effect not named in the record; Potency, µM (top dose mostly 37.9 µM), for the others: at the highest dose activity change, negative = inhibition, most hits filed as inhibitors; 300,000 tested, 1.2% active; AID 540256; active means well fitted inhibition curve with a large enough effect; inconclusive means small, poorly fitted or top-dose-only effect, or effect the other way; inactive means flat fitted curve, though single readings scatter; tested in HEK293 cells; also: % is scaled to controls: 0 for no effect and ±100 for the full control effect; nearly all actives have a fitted effect of over 50% in size; luciferase read-out
Cruzain inh Det – inhibitors of Trypanosoma cruzi cruzain with detergent | Potency, µM, for inactives: max response, negative = inhibition, hits mostly inhibitors | purified cruzain, Z-FR-AMC fluorescence, 0.01% Triton | 200,000 tested, 0.43% active | P25779;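 also: plate controls were neutral wells for no effect and buffer without enzyme for full effect; nearly all actives have a fitted effect of over 40% in size; top concentration of the series not given in the record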
Target sequence (P25779 123-467 limits assumed): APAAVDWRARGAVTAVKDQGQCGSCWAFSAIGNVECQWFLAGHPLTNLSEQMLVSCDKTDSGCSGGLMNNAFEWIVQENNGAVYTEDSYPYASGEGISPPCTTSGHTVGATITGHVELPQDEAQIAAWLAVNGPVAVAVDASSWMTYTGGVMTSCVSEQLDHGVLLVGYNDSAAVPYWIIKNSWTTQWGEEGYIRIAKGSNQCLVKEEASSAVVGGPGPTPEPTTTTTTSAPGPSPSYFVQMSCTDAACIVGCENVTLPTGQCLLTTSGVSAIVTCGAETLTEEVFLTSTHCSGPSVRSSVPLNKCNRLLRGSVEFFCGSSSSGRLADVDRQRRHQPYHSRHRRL
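Compounds were screened in titration against cruzain (1.5 nM) with 0.01% Triton X-100 to counter colloidal aggregation. Activity was the AMC fluorescence increase over 60 s after adding 2 uM Z-FR-AMC at pH 5.5.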
2A StopGo – FMDV 2A StopGo reporter, luciferase signal. human cells with a luciferase reporter of 2A StopGo recoding; control for the full effect not named in the record. Potency, µM (top dose mostly 57.9 µM), for inactives: top-dose signal change, negative = less light. 410,000 tested, 1.2% active. AID 1159524; active = well fitted falling curve with a large enough effect; inconclusive = small, poorly fitted or top-dose-only effect; inactive = no such curve, though single readings can be large or run the other way; tested in HEK293T cells; also: % is scaled to controls: 0 for no effect and ±100 for the full control effect; nearly all actives have a fitted effect of over 45% in size; luciferase light after 4 h
RE007 growth inh – less growth of the S. pombe RE007 Vpr strain. S. pombe RE007 Vpr strain, BacTiter-Glo ATP luminescence, 24 h; control for the full effect not named in the record. 360,000 tested, 0.21% active. AID 651644. Potency, µM (highest dose often 92.2 µM), without a hit: top-dose activity change, negative = less growth; active = well fitted falling curve with a large enough effect; inconclusive = small, poorly fitted or top-dose-only effect; inactive = no such curve, though single readings can be large or run the other way;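 also: % is scaled to controls: 0 for no effect and ±100 for the full control effect; nearly all actives have a fitted effect of over 50% in size; the assay follows cell death caused by Vpr and the record does not say whether a fall means rescue or toxicity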
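Fission yeast RE007 carrying one integrated HIV-1 vpr copy, seeded at OD 0.01 in PMG+AL medium with 23 nL pinned compound. Grown 24 h at 30 degrees; viability read by BacTiter-Glo luminescence after 5 min.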
Cruzain noTriton – cruzain (T. cruzi) inhibition without detergent. P25779. purified cruzain, Z-FR-AMC fluorescence, no detergent. Potency, µM, for the others: max response, negative = inhibition, usual class: inhibitors. 200,000 tested, 2.3% active. AID 1476;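 also: plate controls were enzyme without inhibitor for no effect and buffer without enzyme for full effect; nearly all actives have a fitted effect of over 40% in size; top concentration of the series not given in the record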
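Detergent-free condition (0.00005% Triton X-100) in acetate buffer pH 5.5 with DTT. 1.5 nM enzyme and compound were pre-mixed 15 min, then 2 uM Z-FR-AMC substrate added; reaction progress from fluorescence change between first and third reads (60 s).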
Marburg entry inh – Marburg virus entry inhibition; Marburg virus pseudotyped entry inhibition, cell reporter; control for the full effect not named in the record; about a third of the inactives were read at about 46 µM; Potency, µM (titrated, usually from 37.8 µM), for the others: top-dose activity change, negative = inhibition, usual class: inhibitors; 300,000 tested, 1.8% active; active = well fitted inhibition curve with a large enough effect; inconclusive = small, poorly fitted or top-dose-only effect, or effect the other way; inactive = flat fitted curve, though single readings scatter; tested in HEK293 cells; about a fifth of its hits are not listed in these tables; also: % is scaled to controls: 0 for no effect and ±100 for the full control effect; luciferase read-out
* = called active by the depositor; ? = inconclusive; · = no result given; & = joins results of further samples; [ ] = remark or other dose. Unless noted, calls follow the shape of the dose curve; as a rule, active = well fitted curve in the direction sought with a large enough effect; inconclusive = small, poorly fitted or top-dose-only effect, or another doubt; inactive = no such curve, though single readings can be large; an effect the other way counts as inactive or inconclusive. Potency is read from the fitted curve at half-maximal effect. Hits appear at their usual frequency; 4.7% or so of the library scored in one or more.

SMILES	NS1 function inh	SARS PLpro yeast	Lassa entry inh	Cruzain inh Det	2A StopGo	RE007 growth inh	Cruzain noTriton	Marburg entry inh
CCNC(=O)c1c(NC(=O)Cc2coc3ccc(CC)cc23)sc2c1CCCC2	·	·	1%[46.1 µM]	-3.8%	-13%	·	-26%	?
CN1C(=O)CSC1=Nc1ccc(Br)cc1	-26%	0%	2%	·	-14%	7%	·	0%
CCc1ccc(NC(=O)CSCCO)cc1	-14%	8%	2%	-1.2%	2%	11%	-10%	?
CCc1nnc(NC(=O)CN2C(=O)/C(=C/c3cc(OC)c(OC)c(OC)c3)SC2=S)s1	?	5%	-2%	?	-5%	1%	9%	11%
O=C(CN1CCN(C(=O)c2ccccc2)CC1)Nc1ncc(Br)cc1Br	17%	-4%	4%	-1.1%	?	3%	8%	6%
Cc1ccc(/C=N/NS(=O)(=O)c2ccc([N+](=O)[O-])cc2)o1	-9%	-4%	-5%	-4.9%	30%[activator]	-15%	6%	-3%
CCOc1cc(N2CCOCC2)c(OCC)cc1NC(=O)c1ccc(S(C)(=O)=O)cc1	·	-3%	·	·	-3%	-14%	·	-4%[46.1 µM]
CCc1ccc2occ(CC(=O)Nc3nnc(SC)s3)c2c1	·	·	4%[46.1 µM]	-1.9%	-11%	·	-4%	-3%[46.1 µM]
CN(C)c1ccc(C(C(=O)NC(C)(C)C)N(C(=O)c2csnn2)C2CC2)cc1 (stereo not given)	-2%	-1%	15%	0.6%	0%	19%	4%	?
CC1=C(C(=O)Nc2cccnc2)C(c2ccc(Cl)cc2)n2nc(-c3ccccc3)nc2N1 (stereo not given)	·	·	-26%[46.1 µM]	-4.0%	?	·	22%	?
COc1ccc(NC(=O)CSCC(=O)Nc2cccc3ncccc23)cc1	·	-5%	4%[46.1 µM]	·	-14%	-13%	·	1%
CC(C)OC(=O)CN1C(=O)c2ccccc2C1=O	3%	-2%	0%	4.3%	-2%	-2%	-7%	17%
CCOC(=O)N1CCN(CC(O)COc2cc(C)ccc2C(C)C)CC1 (stereo not given)	0%	15%	5%	-2.4%	-24%	5%	22%	19%
CC(=O)N(CCN(C)C)c1nc2cc3c(cc2s1)OCCO3	-7%	1%	·	·	6%	11%	·	·
CCOc1ccccc1N1CCN(C(=O)NCc2ccc(C)cc2)CC1	-23%	-3%	-18%	·	-6%	4%	·	-13%[46.1 µM]
COc1ccc(CNC(=O)c2sc3nc[nH]c(=O)c3c2C)cc1	·	·	-4%[46.1 µM]	-3.2%	-21%	·	-7%	·
CCn1c(C)c(C)c2cc(C(=O)NCCc3ccc(C)cc3)ccc21	·	·	-9%[46.1 µM]	-4.3%	-10%	·	-4%	·
CN(C(=O)COC(=O)C1CCN(S(=O)(=O)c2ccc3c(c2)OCCO3)CC1)C1CCCCC1	·	-9%	-2%	·	3%	14%	·	-18%
Cn1c(=O)[nH]c(=O)c2c1nc(SCCN1CCOCC1)n2CCCc1ccccc1	2%	0%	·	-2.4%	-24%	27%	-14%	-5%
COc1ccc(C(=O)NNC(=O)CCc2nc3ccccc3c(=O)[nH]2)cc1	·	2%	-2%[46.1 µM]	·	-4%	4%	·	5%[46.1 µM]
COc1cc(NC(=O)CNc2cccc(S(=O)(=O)N3CCOCC3)c2)cc(OC)c1	·	-4%	-10%	·	-24%	-11%	·	?
CCc1ccc(C(=O)NC(C(=O)O)C(C)C)cc1 (stereo not given)	1%	2%	1%	6.5%	0%	-15%[3.69 µM]	-6%	-6%
COc1ccc(C2CC(c3ccccc3)=NN2C(=O)CSc2nccc(=O)[nH]2)cc1 (stereo not given)	23%	10%	?	-7.7%	48%[activator]	13%	-19%	32%
CCOC(=O)CSc1nc2ccccc2c(=O)n1C	-14%	?	-8%	-2.9%	-2%	-6%	-6%	?
CCOCCCNC(=O)c1ccc(CS(=O)(=O)Cc2ccc(C)cc2)o1	?	-13%	6%	1.3%	·	13%	7%	-8%

Further results follow:
SMILES	NS1 function inh	SARS PLpro yeast	Lassa entry inh	Cruzain inh Det	2A StopGo	RE007 growth inh	Cruzain noTriton	Marburg entry inh
O=C(COc1ccc(-c2nnco2)cc1)NC1CCCc2ccccc21 (stereo not given)	-17%	1%	-26%	2.6%	0%	1%	-4%	?
Nc1nc(NCC2CCCO2)nc(Nc2ccc(Cl)cc2)c1[N+](=O)[O-] (stereo not given)	1%	1%	-7%	·	-25%	3%	·	-19%[14.2 µM]
NC(=O)c1ccc(N2CCN(S(=O)(=O)c3ccccc3)CC2)c([N+](=O)[O-])c1	·	1%	2µM*	·	16µM*	1%	·	-27%[46.1 µM]
CC(=O)NC1=C(Nc2ccc(N(C)C)cc2)C(=O)c2ccccc2C1=O	7%	-3%	1.6µM*	·	-12%	?	·	·
Nc1c(C(=O)NCc2ccccc2)c2nc3ccccc3nc2n1CCCN1CCOCC1	7%	-18%	-24%	-11%	-12%	4%	?	?
COc1ccc(CNC(=O)c2sc(=S)n(-c3ccc(OC)cc3)c2N)cc1	5%	5%	-2%	-2.6%	?	7%	5%	-1%
Cc1oc2ccc(O)c(CN3CCCCCC3)c2c1C(=O)Nc1cccc(Cl)c1C	·	·	?	-16%	?	·	?	?
Brc1ccc(Nc2nc(-c3cccnc3)cs2)cc1	·	-15%	-7%	·	11%	3%	·	-17%[46.1 µM]
O=C(COc1ccccc1Cl)Nc1ccc(CN2CCCCC2)cc1	6%	0%	-2%[46.1 µM]	·	-10%	-13%	·	17%[46.1 µM]
O=C(NC1CC2CCC(C1)N2C(=O)NC1CCCCC1)NC12CC3CC(CC(C3)C1)C2 (stereo not given)	9%	3%	-20%	1.4%	12%	-17%	17%	7%
CC(C)CCNC(=O)c1c[nH]c2ccc(S(=O)(=O)N3CCOCC3)cc2c1=O	-4%	2%	·	·	-16%	3%	·	·
COn1c(C)c(C)c2c3nonc3ccc21	-2%	-1%	18%	·	-3%	?	·	?
COc1cccc(NC(=O)Cn2nnc(C(=O)NCc3ccc4c(c3)OCO4)c2N)c1	1%	-14%	?	-1.3%	-12%&-3%	-1%	?	·
Cc1cc(C)nc(SCCS(=O)(=O)Cc2ccccc2)n1	-5%	-2%	13%	1.6%	·	8%	-1%	-16%
NNC(=O)c1csc(CS(=O)(=O)c2ccc(Cl)cc2)n1	1%	-1%	-6%	·	-2%	13%	·	-23%[46.1 µM]
O=C(NCc1cccs1)C1CCN(C(=O)NCc2ccccc2)CC1	-1%	12%	10%	-2.6%	-5%	1%	0%	?
CC1CC(C)(C)NC(=S)N1CCCC(=O)Nc1ccc2c(c1)OCCO2 (stereo not given)	12%	3%	19%	·	37%[activator]	-13%	·	30%[46.1 µM]
CCc1nnc(NC(=O)c2ccc(OC)cc2OC)s1	-47%	0%	?	-1.9%	·	-4%	?	?
NC(=O)c1ccccc1N1CCCCC1	-2%	-2%	·	·	-11%	-4%	·	·
CCCCCCCC#Cc1ccccc1/C=N/S(=O)c1ccc(C)cc1 (stereo not given)	-14%	1%	5%	-1.7%	12%	?	-3%	4%[14.2 µM]
CC(C)CN(CC(C)C)c1nc(-c2ccc(Cl)cc2)nc2ccccc12	·	·	12%[46.1 µM]	-1.8%	-21%	·	-4%	8%[46.1 µM]
O=C(Nc1ccc([N+](=O)[O-])cc1)c1cn(-c2ccccc2)nc1-c1cc2ccccc2o1	8%	7%	-5%	-2.9%	-4%	-11%	7.9µM*	7%
CC(C)(C)C(=O)Oc1cc(N)n(S(=O)(=O)c2ccc(F)cc2)n1	6%	4%	-6%	-2.9%	4%	17%	2%	-5%[46.1 µM]
CCOC(=O)Cn1nc(C)n(-c2ccccc2)c1=O	15%	-1%	-1%	10%	12%	3%	-1%	7%
CCOc1ccc(NC(=O)C2CCN(S(=O)(=O)c3cccs3)CC2)cc1	5%	2%	-21%	·	?	7%	·	28%[46.1 µM]

Next part
SMILES	NS1 function inh	SARS PLpro yeast	Lassa entry inh	Cruzain inh Det	2A StopGo	RE007 growth inh	Cruzain noTriton	Marburg entry inh
CC(=O)c1ccc(NC(=O)c2sc(-n3nc(C)c(CCC(C)C)c3C)nc2C)cc1	·	·	8%[46.1 µM]	-2.2%	9%	·	6%	-16%[46.1 µM]
C=CCn1c(COc2ccc(Cl)cc2)nnc1SCC(=O)c1c(N)n(C)c(=O)n(C)c1=O	·	11%	-3%	·	-7%	-7%	·	-21%[14.2 µM]
COc1ccc(CNC(=O)c2cc(Nc3ccc(OC)cc3OC)nc3ccccc23)cc1	·	·	-16%[46.1 µM]	-7.1%	-15%	·	?	-16%[46.1 µM]
COc1ccc(Cl)c2sc(NC(=O)c3ccc(S(=O)(=O)N4CCOCC4)cc3)nc12	·	·	8%[46.1 µM]	0.3%	-25%	·	11%	·
O=[N+]([O-])c1cc(CN2CCCCCC2)ccc1O	11%	-2%	22%	·	-13%	-4%	·	1%
COc1cccc(NC(=O)C(=O)NCC(c2ccc3c(c2)OCO3)N2CCOCC2)c1 (stereo not given)	·	·	20%[46.1 µM]	2.7%	30%	·	-5%	·
O=C1c2ccccc2CN2C(=O)c3ccccc3CN12	0%	-5%	1%	·	-6%	24%	·	-6%&-6%
O=C(COC(=O)c1ccccn1)Nc1cc(Cl)ccc1Cl	-78%	·	23%	-3.5%	-7%	-20%	-3%	5%
COc1ccc(CCNC(=O)C/C(C)=N/NC(=O)c2cnccn2)cc1	1%	-3%	·	·	-15%	3%	·	·
CC(=O)N1C(=O)N(C)C2C1N(C(C)=O)C(=O)N2C (stereo not given)	-2%	7%	-21%	0.9%	0%	2%	2%	?
CCC1CN(C(=O)Nc2cc(C)cc(C)c2)c2ccccc2O1 (stereo not given)	·	·	?	-8.1%	-10%	·	24%	·
COc1cc2c(cc1OC)CN(CC(O)c1ccccc1)CC2 (stereo not given)	-10%	-1%	17%[46.1 µM]	·	3%	-3%	·	10%[46.1 µM]
COC(=O)CN1C(=S)N(c2ccccc2)C(=O)C1CC(=O)Nc1ccc(Cl)cc1 (stereo not given)	9%	2%	-7%	-3.4%	34%[activator]	3%	2%	-4%
CN(C)/C=C/C(=O)c1nnn(C2CCCCC2)c1NC1CCCCC1	7.9µM*	0%	?	-12%	·	0%	25%	?
